VACV Venus inh – inhibitors of vaccinia virus (Venus reporter) | Vaccinia virus Venus reporter expression, fluorescence | Potency, µM (top dose mostly 36.5 µM), without a hit: at the highest dose activity change, negative = inhibition, most hits filed as inhibitors | 0.46% of 330,000 active | AID 720580; active means well fitted inhibition curve with a large enough effect; inconclusive means small, poorly fitted or top-dose-only effect; inactive means no such curve, though single readings can be large or run the other way; tested in A549 cells; further: nearly all actives have a fitted effect of over 30% in size; inactives centre near -10
VACV mCherry inh – inhibitors of vaccinia virus infection (mCherry reporter signal); Vaccinia virus mCherry reporter infection, fluorescence; about a quarter of the inactives have no number; Potency, µM (titrated, usually from 36.5 µM), inactives show top-dose activity change, negative = inhibition, most hits filed as inhibitors; 0.63% of 310,000 active; AID 720579; active = well fitted inhibition curve with a large enough effect; inconclusive = small, poorly fitted or top-dose-only effect; inactive = no such curve, though single readings can be large or run the other way; tested in A549 cells; further: nearly all actives have a fitted effect of over 35% in size; inactives centre near -10
* hit, by the source's call; i = inactive; ? = inconclusive; · = not tested or not shown; & = joins results of further samples; [ ] = another dose, or the depositor's remark. On the % scale 0 is the no-effect control and ±100 the full control effect; potency means the concentration at half of the fitted maximal effect.

SMILES | VACV Venus inh | VACV mCherry inh
C=CCn1c(SCc2ccccc2)nnc1-c1cccnc1 | -7% | i
CC1CCCN(C(=O)COC(=O)C2CCN(S(=O)(=O)c3c(Cl)cccc3Cl)CC2)C1 (stereo not drawn) | -15% | i
Cc1ccc(NC(=S)N(Cc2ccccc2)C(C)C)cc1 | -7% | -5%
Cc1cc(/C=C2/NC(=O)N(c3ccccc3)C2=O)c(C)n1C(C)C | 1% | -27%
CCc1c(C)sc(NC(=O)c2cc(-c3cccc(Cl)c3)on2)c1C#N | -6%[7.34 µM] | -14%[7.34 µM]
CC(C)(O)C#Cc1ncc(C(F)(F)F)cc1Cl | 1% | i
COc1cccc(N=Nc2c(=O)[nH]n3c(=O)c4c([nH]c23)CCC4)c1 | -6% | -13%
O=C(Cc1ccc(S(=O)(=O)N2CCCC2)s1)N1CCN(c2ccc(F)cc2)CC1 | -4% | i
CN1CCN(C(=O)c2cn(C)c3ccc(S(=O)(=O)N(C)C4CCCCC4)cc3c2=O)CC1 | 1% | -1%
CCS(=O)(=O)c1nc(S(=O)(=O)c2ccc(Cl)cc2)c(N2CCc3ccccc3C2)s1 | 1% | -15%
Cc1cccc(N(C(=O)c2snc(C(N)=O)c2N)C(C(=O)NC2CCCC2)c2ccc(C)o2)c1 (stereo not drawn) | -16% | -8%
CNC(=S)N(CCc1cccc(C)c1)Cc1cc2cc(OC)c(OC)cc2[nH]c1=O | -12% | i
CC(=O)Nc1ccc(NC(=O)CCc2nc3cccnc3n2Cc2cccs2)cc1 | 4% | 1%
OCCN1CCN(C(c2ccccc2Cl)c2sc3nc(-c4ccco4)nn3c2O)CC1 (stereo not drawn) | 2% | -6%
CCOC(=O)c1ccc(NC(=O)CC(=O)Nc2ccc3nc4n(c(=O)c3c2)CCCCC4)cc1 | -22% | -29%
COc1ccccc1NC(=O)C(C)OC(=O)C1CCC(C(C)(C)C)CC1 (stereo not drawn) | -5% | -6%
C=CCn1c(CCCNC(=O)C(C)(C)C)nc2ccccc21 | 5% | i
O=C(c1ccccc1)N1CCN(Cc2c[nH]c3ccccc23)CC1 | -11% | -20%
Cc1ccc(C)c(C(=O)CCC(=O)N2CCN(c3ncccn3)CC2)c1 | -8% | -14%
Cc1ccc(S(=O)(=O)Nc2ccc(NC(=O)c3cccs3)cc2)cc1 | -20% | ?
COc1cc2c(c(OC)c1OC)-c1ccc(O)c(=O)cc1[C@@H](N)CC2 | -9% | 10%
OC(CNCCC1C=Nc2ccccc21)Cn1c2ccc(Cl)cc2c2cc(Cl)ccc21 (stereo not drawn) | ? | 20µM*
CC(=O)c1cccc(NC(=O)N2CCCC2C(=O)Nc2c(C)cccc2C)c1 (stereo not drawn) | -16% | -22%
O=C(O)/C=C/C(=O)NCC1CCC(CNC(=O)/C=C/C(=O)O)CC1 (stereo not drawn) | 0% | -10%
O=C(O)Cn1cnc2scc(-c3ccccc3)c2c1=O | -5% | i
Cc1occc1C(=O)Nc1ccc2c(c1)OCO2 | -14% | -25%
COc1ccc(NC(=O)CCCC(=O)O)cc1Cl | 1% | -12%
O=[N+]([O-])c1nn(-c2ccccc2)[n+]([O-])c1N1CCN(c2ccccc2)CC1 | 1% | -11%
Cc1ccccc1NS(=O)(=O)c1ccc(OCC(=O)NCC2CCCO2)cc1 (stereo not drawn) | -6% | i
Cc1cccc(-n2c(C)nc3cc(C(=O)NCc4ccc5c(c4)OCO5)ccc32)c1 | -2% | i
Cc1cc(C)nc(Nc2ncc(O)n2-c2ccc(C)c(Cl)c2)n1 | -15% | -13%
CCOc1ccc(NC(=O)CSc2nnc(N)s2)c([N+](=O)[O-])c1 | -3% | -14%
COc1ccc(NC(=O)C2CCN(c3nc4ccccc4nc3C(F)(F)F)CC2)cc1 | -3% | 5%
COc1ccc(CCN2C(=O)C3C4CC(C5C(C(=O)NN)=NOC45)C3C2=O)cc1OC (stereo not drawn) | -24% | ·
COc1ccc(C(=O)c2ccccc2)cc1CN1CCOCC1 | -17% | 7%
CC(C)N1C(=O)N(c2cccc(Cl)c2)C(C)(O)CC1(C)C (stereo not drawn) | -2% | -2%
Cc1ncc([N+](=O)[O-])n1Cc1ccc(Cl)cc1 | -9% | -9%
CN1CCN(C(=O)CCN2C(=O)/C(=C/c3ccccc3Cl)SC2=S)CC1 | 56%[activator] | 0%
N#Cc1ccc(Oc2ccc(S(=O)(=O)N3CCCCC3)cn2)cc1 | -9% | -15%
Cn1cccc1-c1cc(C(=O)N/N=C/c2ccc([N+](=O)[O-])cc2)[nH]n1 | -8% | i
Cc1ccc([N+](=O)[O-])cc1S(=O)(=O)Nc1ccc(C(=O)NCc2ccccn2)cc1 | -10% | -15%
O=c1cc(-c2ccc(OCc3ccccc3)cc2)oc2cc(OCc3ccccc3)cc(OCc3ccccc3)c12 | -6% | ?
CCOc1ncccc1C(=O)N1CCN(C(c2ccccc2)c2ccccc2)CC1 | -8% | -4%
O=C(O)/C=C1\NC(=O)c2ccccc21 | -19% | ·
CCOC(=O)N1CCN(Cc2nc3cc(NC(=O)CC(C)C)ccc3n2C(C)C)CC1 | -28% | ?
S=C(Nc1ccccc1)N1CCN(C/C=C/c2ccccc2)CC1 | -14% | ?
C/C(=N\N=C1\NC(=O)C(CC(=O)Nc2ccc(C)c(Cl)c2)S1)C(C)C (stereo not drawn) | -12% | -6%
CCOC(=O)c1cnc2c(ccc3ccccc32)c1Nc1ccc(Cl)cc1 | -17% | i
Cc1ccc(C(=O)NC2CCc3ccccc3C2=O)cc1 (stereo not drawn) | -14% | -6%
C=CCN(C(=O)CNC(=O)c1ccco1)C(C(=O)NC1CCCC1)c1ccc(OC)cc1 (stereo not drawn) | 4% | -6%
Continued:
SMILES | VACV Venus inh | VACV mCherry inh
Cc1nn(C)c(Cl)c1CN1CCC(CO)(CCOc2ccccc2)CC1 | -9% | i
Cc1cc(C)c2cc(N)c(Cl)nc2n1 | -3% | i
COc1cccc(-c2ccc3c(N)c(C(=O)c4ccc(F)cc4)sc3n2)c1 | -6% | -11%
O=C(NCCN1CCOCC1)/C(=C/c1ccco1)NC(=O)c1ccccc1 | -4% | i
CN(C)c1cccc(C(=O)Nc2nc3ccc(S(=O)(=O)N4CCCC4)cc3s2)c1 | ? | ?
CCN(CC)CCOC(=O)c1ccc(NC(=O)Cn2ncc3c([nH]c4ccc(C)cc43)c2=O)cc1 | 0% | -4%
COc1cc2c(cc1OC)CN(C(=O)Nc1ccccc1Cl)CC2 | 2% | -21%
O=C(/C(=N\Nc1ccc(Br)cc1)Sc1nnnn1-c1ccccc1)c1ccccc1 | -14% | -13%
Cc1n[nH]c(C)c1S(=O)(=O)N1CCC(C(=O)N2CCn3c2nc2ccccc23)CC1 | 4% | -21%
CN1CCN(c2ccccc2NC(=S)NC(=O)c2cc3ccccc3o2)CC1 | -9% | -21%
CCN(CC)c1ccc(CNCCc2ccc(F)cc2)cc1 | -8% | 10µM*
COc1ccc(C(=O)C2CCCN(S(=O)(=O)C(C)C)C2)c(C)c1 (stereo not drawn) | -18% | -3%
N#Cc1nc(Cc2cccc3ccccc23)oc1N1CCCCC1 | -19% | ·
COc1ccc(C(=O)NC2CC(C)(C)Cc3c2cnn3-c2ccccc2)cc1OC (stereo not drawn) | -12% | i
COC(=O)c1[nH]c2ccc(Cl)cc2c1NC(=O)Oc1ccccc1 | -14% | -14%
Cc1nn(C)cc1C(C)NC(=O)c1cc(COc2cccc3cnccc23)on1 (stereo not drawn) | -20% | -20%
CCC(C)[C@H](NC(=O)N1CC(=O)Nc2ccccc21)C(=O)N1CCC[C@H]1C(=O)O (stereo partly drawn) | 7% | -6%
COc1ccc(S(=O)(=O)Cc2ccc(C(=O)NC3CCCC3)o2)cc1 | 1% | 2%
CC(C)(C)CC(C)(C)NC(=O)c1ccc2snnc2c1 | -8% | -1%
OCCC1CN(Cc2ccc3nsnc3c2)CCN1C1CCCCC1 (stereo not drawn) | -11% | -17%
CC(NC(=O)C1(C)CC1(Br)Br)C(C)(C)C (stereo not drawn) | -7% | -20%
O=C(NC1CC1)c1ccc(NC(=O)C2CCC2)cc1 | -1% | -4%
CC(O)(COc1ccccc1)c1ccc2c(c1)CN(Cc1cccc3ncccc13)CCO2 (stereo not drawn) | -4% | -19%
CCC(C(=O)Nc1cc(-c2cn3cccnc3n2)ccc1C)c1ccccc1 (stereo not drawn) | -6% | -10%
O=C(CSc1nccc(=O)[nH]1)Nc1ccc(S(=O)(=O)N2CCOCC2)cc1 | 0% | -14%
O=C(NCc1ccccc1OC(F)(F)F)C1CCC(=O)N(Cc2cccc(F)c2)C1 (stereo not drawn) | -14% | i
Cc1ccc2nc(NC(=O)c3ccc(S(=O)(=O)N4CCCc5ccccc54)cc3)sc2c1 | -16%&-8% | -22%&-13%
Cc1ccnc(SCc2cc(=O)c(OC(=O)c3cc([N+](=O)[O-])ccc3Cl)co2)n1 | 2% | i
Cc1cc(C)cc(N2C(=O)CC(Sc3ccccc3C(=O)O)C2=O)c1 (stereo not drawn) | -10% | i
CCOc1nc2cccc(C(=O)OC(C)OC(=O)OC3CCCCC3)c2n1Cc1ccc(-c2ccccc2-c2nn[nH]n2)cc1 (stereo not drawn) | -25% | -30%
CCC(C)(C)NC(=O)CCCSc1nc2ccccc2[nH]1 | -10% | -12%
CNC(=O)CSc1cnc2ccccc2n1 | 6% | i
Cc1ccc(C(=O)C[n+]2cccc(C(N)=O)c2)cc1 | -9%[7.34 µM] | -8%[7.34 µM]
CCOC(=O)c1ccc(S(=O)(=O)NCC(C)(C)N2CCOCC2)cc1 | -9% | i
Cc1ccc(C)c(NC(=O)CSc2nccn2-c2cccc(C)c2C)c1 | -15% | -8%
COc1ccc(CNC(=O)c2oc3c(c2C)-c2nn(Cc4ccc(Cl)cc4)cc2CC3)cc1 | ? | -25%
S=C(N/N=C/c1ccccc1)N1CCOCC1 | 1% | i
CC(=O)c1cccc(NC(=O)C2CCN(S(=O)(=O)c3cccs3)CC2)c1 | -12% | -6%
CC(=O)Nc1ccc(NC(=O)/C(Cl)=C/c2ccccc2)cc1 | -2% | ·
CCCCN1C(=O)/C(=C(/C#N)C(N)=O)c2ccccc21 | -11% | -15%
O=C(c1ccc(N2CCNCC2)cc1)c1cccnc1 | -19% | ·
COc1ccc(C(=O)NC2CCCCCC2)cc1S(=O)(=O)N1CCOCC1 | -18% | i
O=C(CSc1nc2c(c(=O)[nH]1)CCC2)Nc1cccc(F)c1 | -9% | -7%
O=C(CC(C(=O)c1ccccc1)c1ccccc1)c1ccccc1 (stereo not drawn) | -3% | i
CCOC(=O)C1=CCC(c2ccc(F)cc2)N(S(=O)(=O)c2ccc(C)cc2)C1 (stereo not drawn) | -4% | 19%
CCOC(=O)c1nn(C23CC4CC(CC(C4)C2)C3)c2c1C(=O)N(c1ccc(C)cc1)C2=O | -12% | ·
COCC(C)N1CCC(n2nccc2NC(=O)CCOc2ccccc2)CC1 (stereo not drawn) | -4% | -14%
O=C(C[C@@H]1C/C=C\C[C@H](NC(=O)OCC2c3ccccc3-c3ccccc32)C(=O)O[C@H](c2ccccc2)CNC1=O)NCCO | -19% | i
Cc1cccc(OCC(=O)NNC(=O)C2CCCCC2C(=O)O)c1 (stereo not drawn) | -17% | i
CCOC(=O)c1c(C)n(C)c2ccc(OCC(O)CN3CCC(C)CC3)cc12 (stereo not drawn) | -17% | i
Further results.
SMILES | VACV Venus inh | VACV mCherry inh
COc1cc(OC)c(Cl)cc1N | -15% | i
Cc1ccc(C)c(OCCC(=O)OCC(=O)NC(=O)NCc2ccccc2)c1 | -10% | -28%
NC(=O)c1ccsc1NC(=O)COC(=O)Cc1cccc2ccccc12 | ? | -13%[1.46 µM]
CCC(=O)OC1=C(C(C)=O)N(Cc2ccccc2)S(=O)(=O)c2ccccc21 | -5% | -3%
Cc1ccnc(NS(=O)(=O)c2ccc(Cl)nc2)c1 | -1% | -10%
O=[N+]([O-])c1ccc(CN2CC=C(c3ccccc3)CC2)cc1 | 16% | -5%
O=C(CN1CCN(c2ccccc2O)CC1)NC(c1ccccc1)c1ccccc1 | -13% | -15%
CC12CCC(=O)N1C(C(=O)OCC(=O)Nc1ccc(Cl)c(Cl)c1)CS2 (stereo not drawn) | -3% | -13%

Structures from the list above that contain an NH in an aromatic ring:
SMILES | VACV Venus inh | VACV mCherry inh
COc1cccc(N=Nc2c(=O)[nH]n3c(=O)c4c([nH]c23)CCC4)c1 | -6% | -13%
CNC(=S)N(CCc1cccc(C)c1)Cc1cc2cc(OC)c(OC)cc2[nH]c1=O | -12% | i
O=C(c1ccccc1)N1CCN(Cc2c[nH]c3ccccc23)CC1 | -11% | -20%
Cn1cccc1-c1cc(C(=O)N/N=C/c2ccc([N+](=O)[O-])cc2)[nH]n1 | -8% | i
CCN(CC)CCOC(=O)c1ccc(NC(=O)Cn2ncc3c([nH]c4ccc(C)cc43)c2=O)cc1 | 0% | -4%
Cc1n[nH]c(C)c1S(=O)(=O)N1CCC(C(=O)N2CCn3c2nc2ccccc23)CC1 | 4% | -21%
COC(=O)c1[nH]c2ccc(Cl)cc2c1NC(=O)Oc1ccccc1 | -14% | -14%
O=C(CSc1nccc(=O)[nH]1)Nc1ccc(S(=O)(=O)N2CCOCC2)cc1 | 0% | -14%
CCOc1nc2cccc(C(=O)OC(C)OC(=O)OC3CCCCC3)c2n1Cc1ccc(-c2ccccc2-c2nn[nH]n2)cc1 (stereo not drawn) | -25% | -30%
CCC(C)(C)NC(=O)CCCSc1nc2ccccc2[nH]1 | -10% | -12%
O=C(CSc1nc2c(c(=O)[nH]1)CCC2)Nc1cccc(F)c1 | -9% | -7%
